MT1-MMP act inh – inhibitors of human MT1-MMP activation; P50281; HT1080 RFP-PRO-GFP cells, GFP/RFP ratio fluorescence, overnight; percent of plate control window, DMSO zero; GFP/RFP ratio change, % at 20 µM; 360,000 compounds, 0.061% hits; AID 651647;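 active = GFP/RFP ratio change of at least 30% with cell ATP level not reduced by more than half and red fluorescence within 50% of control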; note: strong numbers were not always called active
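Assay system: HT1080 cells carrying an RFP-PRO-GFP reporter | Dosing: Single dose of 20 µM compound, 1% DMSO final | Incubation: Cells overnight before dosing, compound overnight, 37 °C, 5% CO2 | Evaluation: GFP/RFP fluorescence ratio | Control set: DMSO and RFP-L50D-GFP cell wells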
Env fusion inh – HIV envelope-mediated fusion inhibition; HeLa-JRFL Env/CEM21 cell fusion, luciferase; inhibition, % at 12.3 µM; 360,000 compounds, 1.1% hits;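 active = mean replicate inhibition score of at least 50 and every replicate individually at or above 50; inconclusive = only one of the two criteria met; inactive = mean below 50 and not all replicates reaching 50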;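 note: 0% = plate neutral controls and 100% = maraviroc near 300 nM; one replicate is shown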
CSC inhib – blocks cancer stem cells; cancer stem cell-like cells viability, luminescence; inhibition, % at 7.5 µM; 300,000 compounds, 1.1% hits; AID 2717;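 active = mean at 75% or more and at least half the replicates too; inconclusive = mean and replicates disagree; tested in HMLE shEcad cells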;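 note: 0% = median of negative and 100% = median of positive control wells; the first replicate is given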
eIF4H inh – inhibitors of RNA binding by human eIF4H. eIF4H fluorescence polarization binding assay. inhibition, % at 35 µM. 290,000 compounds, 0.94% hits. AID 2012;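 active = 50% or more with normal probe brightness, or confirmed in later tests; inconclusive = above 50% with abnormal brightness, or retests that disagree; inactive = below 50% or failed in later tests; about a fifth of its hits are not listed in these tables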;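 note: calls also rest on retests at 20 µM and on dose response follow-up; 0% = protein and probe with vehicle and 100% = probe without protein; strong numbers were not always called active; many hits fall short of the cut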
PABP FP inh – blocks human PABP binding to poly(A) RNA; P11940; fluorescence polarization; inhibition, % at 35 µM; 290,000 compounds, 1% hits; AID 2014;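 active = 50% or more with normal probe brightness, or confirmed in later tests; inconclusive = above 50% with abnormal brightness, or retests that disagree; inactive = below 50% or failed in later tests; about a fifth of its hits are not listed in these tables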;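 note: calls also rest on retests at 20 µM and on dose response follow-up; controls were probe without protein and protein plus probe with vehicle; some compounds called inactive have numbers as strong as hits; many hits fall short of the cut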
UUG fidelity – modulators of start codon recognition fidelity in yeast; S. cerevisiae UUG-firefly luciferase reporter, luminescence/redox ratio; activity score, % at 18.7 µM; 350,000 compounds, 0.13% hits; AID 602363;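 active = replicate mean at a twofold rise or more, about +100% in these data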;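 note: firefly luciferase made from a UUG start codon reports start codon fidelity; reporter light over untreated wells divided by growth signal over untreated wells; some hits fall short of that in this replicate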
Rce1 inh – yeast Ras-converting enzyme inhibition | Q03530 | yeast membranes, quenched prenylated peptide cleavage fluorescence | calls only | 290,000 compounds, 0.27% hits;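 active = fall in fluorescence gain of 50% or more versus controls, with final raw signal at or below 3038400; inconclusive = same 50% fall but final raw signal above 3038400; inactive = fall in fluorescence gain under 50%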;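 note: plate controls were neutral control wells for no effect and wells lacking membranes for full effect; tested at 10 µM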
Target sequence (Q03530 whole entry, looked up): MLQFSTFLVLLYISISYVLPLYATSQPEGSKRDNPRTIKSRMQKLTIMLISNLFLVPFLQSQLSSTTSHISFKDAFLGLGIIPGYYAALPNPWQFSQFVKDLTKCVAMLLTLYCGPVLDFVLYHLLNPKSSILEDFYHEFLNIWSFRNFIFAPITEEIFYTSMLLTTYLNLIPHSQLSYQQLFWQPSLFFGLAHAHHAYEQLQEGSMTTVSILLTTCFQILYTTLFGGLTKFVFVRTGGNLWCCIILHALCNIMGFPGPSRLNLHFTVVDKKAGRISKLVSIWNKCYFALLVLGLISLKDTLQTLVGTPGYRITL
eIF4H inh retest – further read-out of eIF4H inh, marked with its call; inhibition, %; compound at 20 µM; confirmation average;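 mean of two retest wells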
PABP FP inh retest – further read-out of PABP FP inh, marked with its call; inhibition, %; compound at 20 µM; confirmation repeats;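 mean of two retest wells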
MT1-MMP act inh RFP – second read-out of MT1-MMP act inh, no call of its own (marks repeat the call); RFP signal change, %; measured here: RFP expression control read;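 0 = vehicle wells; hits needed this value within 50% of zero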
* marks the source's active call; other numbers are inactive results; i = inactive; ? = inconclusive; / = not tested or not shown.

SMILES	MT1-MMP act inh	MT1-MMP act inh RFP	Env fusion inh	CSC inhib	eIF4H inh	PABP FP inh	UUG fidelity	Rce1 inh	others
CCN(CC(=O)NCc1ccc(Cl)cc1)C(=O)c1cc(OC)cc(OC)c1	1	2	3	-2	-4	3	5	/
O=C(c1ccco1)N1CCN(Cc2cc(=O)c(OCc3c(F)cccc3Cl)co2)CC1	4	0	-1	-6	/	/	-7	i
O=C(CN1CCCC1=O)NC1(C(F)(F)F)NC(=O)N(Cc2ccccc2)C1=O (stereo unspecified)	3	1	/	-6	-14	-3	-11	i
N#Cc1ccc(NC(=O)COC(=O)c2cccnc2Cl)cc1	-1	3	/	-9	/	/	-47	/
C=C[C@@H]1c2ccccc2N(S(=O)(=O)c2ccc(C)cc2)[C@H](c2ccc(C(=O)OC)cc2)C1(C#N)C#N	4	-2	?	20	/	/	-15	/
Cc1nn(C)c(C)c1NC(=S)Nc1ccc(S(=O)(=O)Nc2ncccn2)cc1	1	6	-5	11	-6	1	-16	i
COc1ccc(Br)cc1CN(C)CC(=O)Nc1ccccc1Cl	-3	-1	31	51	4	22	-18	i
COc1cccc(C2NC(=O)c3sc(=S)n(-c4ccccc4)c3N2)c1 (stereo unspecified)	-3	0	/	/	7	9	-6	i
Cc1ccc(-n2nnnc2SCC(=O)N2CCc3ccccc3C2)c(C)c1	4	-4	25	-16	1	5	-4	i
CCOC(=O)Cc1csc(NC(=O)CSc2nc(C)cc(C)n2)n1	1	-4	11	-9	/	/	/	/
O=C(NCC(=O)N1CCCC(C(F)(F)F)C1)c1ccc(Br)o1 (stereo unspecified)	1	3	2	-4	/	/	/	i
O=C(CSc1nnc(-c2ccc(Cl)cc2)o1)N1CCOCC1	-1	1	-4	3	1	6	-6	i
COC(=O)N1CCCCC1c1cc(C(=O)Nc2ccc(OC)cc2C)no1 (stereo unspecified)	-1	4	2	/	/	/	-1	/
CN(Cc1ccccc1)C(=O)c1csc([C@@H]2O[C@H](CO)[C@H](O)[C@H](O)[C@H]2O)n1	3	12	10	/	/	/	4	/
CC(C)(C)OC(=O)NCCCCCc1nnc(SCc2cccc(F)c2)o1	-2	-9	19	/	-5	5	/	i
Nc1nc(SCC(=O)C23CC4CC(CC(C4)C2)C3)n[nH]1	1	6	/	-5	-4	0	/	i
O=C(Nc1cc(C(F)(F)F)ccc1N1CCCCC1)C1=COCCO1	0	0	5	/	/	/	-1	/
CN(C(=O)COC(=O)CN1C(=O)c2cccc([N+](=O)[O-])c2C1=O)c1ccccc1	2	-2	0	-8	/	/	9	/
NS(=O)(=O)c1ccc(CCNC(=O)COC(=O)Cc2ccc([N+](=O)[O-])cc2)cc1	-4	3	/	-17	/	/	-5	/
CCOC(=O)c1cc(CC)sc1NC(=O)COC(=O)c1cnccn1	9	4	-25	-6	/	/	5	/

A draw from above in order of number of heavy atoms, highest first.
SMILES	MT1-MMP act inh	MT1-MMP act inh RFP	Env fusion inh	CSC inhib	eIF4H inh	PABP FP inh	UUG fidelity	Rce1 inh	others
O=C(c1ccco1)N1CCN(Cc2cc(=O)c(OCc3c(F)cccc3Cl)co2)CC1	4	0	-1	-6	/	/	-7	i
Cc1ccc(-n2nnnc2SCC(=O)N2CCc3ccccc3C2)c(C)c1	4	-4	25	-16	1	5	-4	i
COc1ccc(Br)cc1CN(C)CC(=O)Nc1ccccc1Cl	-3	-1	31	51	4	22	-18	i

The list goes on.
SMILES	MT1-MMP act inh	MT1-MMP act inh RFP	Env fusion inh	CSC inhib	eIF4H inh	PABP FP inh	UUG fidelity	Rce1 inh	others
O=c1[nH]cnc2c1C1(CCCC1)Cc1ccccc1-2	5	1	/	/	1	-2	-25	i
CCOc1ccc(NC(=O)c2ccc(N3CC4CC(C3)c3cccc(=O)n3C4)c(N)c2)cc1 (stereo unspecified)	2	0	3	-9	4	1	-10	i
CCOc1ccccc1N1CCN(CC(=O)NC(=O)NCc2ccco2)CC1	3	5	0	-2	-2	-7	-17	i
Cc1n[nH]c(C)c1NC(=O)CN1CCN(S(=O)(=O)c2ccc(C(F)(F)F)cc2)CC1	2	1	-8	/	/	/	-13	/
COC1(OC)N=C(N)C2(C#N)C(c3ccc(C)cc3)C12C#N (stereo unspecified)	0	2	/	2	3	-3	-2	i
CCN1CCN(C(c2cc(OC)c(OC)c(OC)c2)c2nnnn2C(C)C)CC1 (stereo unspecified)	2	0	/	-10	-9	17	-1	i
C=CC[C@H](CC(=O)N(CCO)Cc1ccccc1)C(=O)NC[C@H](OC(=O)[C@@H](CC=C)CC(=O)OC(C)(C)C)c1ccccc1	-13	-18	12	/	/	/	1	/
CC(C)c1cc(C(=O)N2CCCC(Nc3ccc(F)cc3)C2)n[nH]1 (stereo unspecified)	-2	0	2	6	4	0	-4	i
O=C1N[C@@H](Cc2c[nH]c3ccccc23)COC(=O)[C@H](Cc2ccc(F)cc2)C/C=C\C[C@H]1CC(=O)N(CCO)Cc1ccccc1	1	-2	-18	33	/	/	-11	/
CCCCC(C(=O)NC(C)(C)C)N(Cc1ccccc1Cl)C(=O)c1snc(C(N)=O)c1N (stereo unspecified)	-3	-5	8	/	-7	-1	2	i
C=CCc1cc(Cl)ccc1OC(=O)Nc1cccc(Cl)c1	4	-9	2	24	4	-4	-5	i
CCN(CC(=O)Nc1ccccc1C(F)(F)F)C(=O)Cn1c(=O)cnc2ccccc21	2	3	-5	-13	/	/	-11	i
Cc1c(Cl)cccc1N=C(N)N=C(N)N	9	6	-11	5	-10	-7	/	i
N#Cc1ccc(C(=O)NCC(c2ccco2)N2CCCCC2)cc1 (stereo unspecified)	3	5	/	-8	28	-6	-1	i
C/C(O)=C(/C=Nc1ccccc1)C(=O)Nc1ccccc1	-3	1	-24	-4	12	5	/	i
CC(Oc1ccc2ccc(=O)oc2c1)C(=O)NCC1CCC(C(=O)O)CC1 (stereo unspecified)	7	7	/	-12	-19	-5	-12	i
Cc1ccc(N2C(=O)c3ccccc3NC2c2ccccc2O)cc1 (stereo unspecified)	-4	1	-42	-2	0	3	-15	i
Cc1ccc(-n2c(SCC(=O)N(C)C)nnc2-c2ccco2)cc1	-3	0	15	9	3	-4	14	i
COc1ccc(Sc2nnc(Cc3ccccc3)c3ccccc23)cc1	1	-8	-6	62	-11	8	-19	i
COc1ccc(N(CC(=O)NCc2ccc(F)cc2)C(=O)c2snc(C(N)=O)c2N)cc1	1	1	-1	-4	-11	5	-17	i
COCCn1c(C)cc(C(=O)CSc2nnc(C)s2)c1C	0	0	63*	-23	4	2	-84	i
COC(=O)c1c(C(=O)OC)c(-c2ccc(OC)cc2)n2c1CCC2	5	2	-73	-24	5	6	/	i
CC(C)N(CC(O)COc1ccc(CC(N)=O)cc1)CC(O)COc1ccc(CC(N)=O)cc1 (stereo unspecified)	/	/	4	-4	2	0	8	i
Cc1noc(C)c1COc1ccccc1C(=O)NCCc1ccc(S(N)(=O)=O)cc1	-3	2	-10	-7	0	-6	12	i
N#CCCN1CCN(CCC#N)c2ccccc21	-1	6	-264	/	/	/	-15	/
Cc1cc(C=O)c(C)n1-c1cc(C(=O)O)cc(C(=O)O)c1	-1	1	-7	17	90	37	/	i	eIF4H inh retest=14;PABP FP inh retest=1
Nc1c(C=C2C=CC(=O)C=C2)c(=O)nc2sc(CC(=O)N3CCOCC3)nn12	0	2	1	-13	9	10	/	i
O=C(NCCCN1CCCCC1)c1ccc2c(c1)NC(=O)C(N1CCCCC1)S2 (stereo unspecified)	2	3	/	-9	-2	6	/	i
O=C(COC(=O)Cc1ccc(Cl)cc1)Nc1c(F)cccc1F	2	6	3	/	-12	-6	460*	i
Cc1cc(C)cc(NC(=O)c2cccc(N3C(=O)C4C5C=CC(C5)C4C3=O)c2)c1 (stereo unspecified)	-2	0	-7	/	-6	7	12	i
CC(=O)Nc1ccc(NC(=O)/C=C/c2cccc(C(F)(F)F)c2)cc1	1	-1	2	8	6	10	/	i
O=S(=O)(NC1=NCCC1)c1cccc(NC(=S)NCCc2ccccc2)c1	3	1	-15	-15	-6	-2	/	i
Cc1c(NC(=O)COC(=O)/C=C/c2ccccc2Br)c(=O)n(-c2ccccc2)n1C	3	4	1	-1	/	/	7	/
Cc1ccc(S(=O)(=O)N2[C@@H](c3ccc(Cl)cc3)C(C(=O)O)=CC[C@H]2c2cccc(C)c2)cc1	0	-1	26	0	/	/	-19	/
CCOc1ccc(N(C(=O)c2snc(C(N)=O)c2N)C(C)C(=O)NC2CCCCC2)cc1 (stereo unspecified)	1	-5	14	2	-6	9	8	i
COC1CCCN(Cc2c(C(=O)N3CCc4ccccc4C3)nc3ccc(Cl)cn23)C1 (stereo unspecified)	-3	3	-1	-19	26	10	-22	i
COc1nc(OC)nc(N2CCC(C(=O)NCc3ccc(F)cc3)CC2)n1	3	-4	-35	-4	-4	1	-17	i
CCn1c(SCC(=O)NCc2ccco2)nnc1-c1ccc(N)cc1	-2	10	/	-25	-1	-5	-10	i
CCc1ccc(NC(=O)CSc2nc3cc(C(=O)OC)ccc3c(=O)n2Cc2ccco2)cc1	1	2	-30	0	-9	2	-14	i
Cc1c(C(=O)O)sc2nc(/C=C/c3cccc(F)c3)[nH]c(=O)c12	7	-2	-14	-3	-6	18	-1	i
CC1CCC(=NNC(=O)c2ccccc2-n2cccc2)CC1 (stereo unspecified)	4	2	-4	-3	/	/	-3	i
O=C(O)COn1c(-c2ccccc2)nc2ccc([N+](=O)[O-])cc21	3	0	-53	3	104	84*	-6	i	eIF4H inh retest=24;PABP FP inh retest=87*
CCC(C(=O)Nc1ccc2c(c1)OCCO2)n1c(=O)[nH]c2ccccc2c1=O (stereo unspecified)	2	4	8	5	-2	1	-18	i
CCN1C(=O)/C(=C/C=C2/Sc3ccccc3N2CCO)SC1=S	29	56	-5	-1	0	-8	-10	i
O=C(NN=C1CCCC1)c1ccn[nH]1	1	2	16	30	-9	-9	/	i
CCN(CC)CCN(C(=O)c1ccc2c(c1)OCCO2)c1nc2cc3c(cc2s1)OCO3	-3	-1	2	-1	-2	6	12	i
O=C(CCCn1cnc2ccccc2c1=O)Nc1ccccc1F	0	2	-2	-5	-5	6	/	i
COC(=O)NCC(c1cccnc1)N1CCN(c2ccccc2F)CC1 (stereo unspecified)	1	3	-19	2	-12	5	-3	i
CCN1CCN(C(CCc2ccccc2)C(=O)NC2CCCCC2)CC1 (stereo unspecified)	8	8	-11	/	/	/	1	/
CC(=O)NS(=O)(=O)c1ccc(NC(=O)C2c3ccccc3Oc3ccccc32)cc1	2	4	0	16	-5	8	-8	i
Cc1ccc(S(=O)(=O)NC(=O)C2(C)CCN2C(=O)Cc2cccs2)cc1 (stereo unspecified)	5	14	23	/	/	/	-13	/
C=CCNC(=O)C(C(=O)OCC)C1CCCCC1 (stereo unspecified)	-2	-9	-89	-7	4	3	1	i
CC1(C)CCc2cc(-c3ccnc(=S)[nH]3)ccc2O1	3	0	-128	-6	-1	14	/	i
O=C(N/N=C/c1c(Cl)cccc1Cl)c1ccc(F)cc1	3	0	/	9	-1	8	-12	i
Cn1c(SCC(=O)c2c(N)n(C)c(=O)n(C)c2=O)nnc1-c1ccc(F)cc1	0	0	-12	11	7	-4	/	i
CC[C@]12c3[nH]c4cc(CCC(=O)N(C)C)ccc4c3CCN1C(=O)[C@@H](CC(=O)NCc1ccco1)C[C@@H]2C(=O)N1CCN(C(=O)c2ccco2)CC1	0	7	-14	/	/	/	11	/
